ClpP mod: qHTS Assay for Activators of ClpP | ATP-dependent Clp protease proteolytic subunit (Bacillus subtilis (strain 168)), P80244 | purified B. subtilis ClpP, FRET peptide cleavage, 20 min | Potency, µM (top dose mostly 57.5 µM), for inactives: at the highest dose activity change, negative = active | 340,000 compounds, 1.9% hits | AID 651965, 2013; active = well fitted falling curve with a large enough effect; inconclusive = small, poorly fitted or top-dose-only effect; inactive = no such curve, though single readings can be large or run the other way; further: potency means the concentration at half of the fitted maximal effect; the source files actives as falling curves though it sought activators and does not explain the sign; nearly all actives have a fitted effect of over 65% in size; many hits overshoot -100%
Target sequence (P80244 whole entry, looked up): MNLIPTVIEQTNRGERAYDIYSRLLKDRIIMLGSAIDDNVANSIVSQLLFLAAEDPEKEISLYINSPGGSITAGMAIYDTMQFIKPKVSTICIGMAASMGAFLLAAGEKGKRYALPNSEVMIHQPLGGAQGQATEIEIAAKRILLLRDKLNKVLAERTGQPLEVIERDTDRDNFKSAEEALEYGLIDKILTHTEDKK
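FRET quenching reversal measured ClpP activation: 10 microg/mL B. subtilis ClpP at pH 8 with the FRET-FV decapeptide, read at 430 nm after 320 nm excitation. The 20-min minus 0-min signal was scaled between DMSO/no-enzyme wells and ADEP (5.8 microM final).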
CtBP-E1A blk: blocks the CtBP interaction with E1A; 340,000 compounds, 0.49% hits; AID 651724; AlphaScreen GST-E1A/His-CtBP binding, 1536-well; hits give low values; control for the full effect not named in the record; activity change, % (no concentration beside the values); in the data active means activity change below about -65%; inconclusive means about -30% to -65%; inactive means above about -30%; further: on the % scale 0 is the no-effect control and ±100 the full control effect
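Homogeneous bead-based format: GST-tagged E1A captured on glutathione donor beads, His-tagged CtBP on nickel acceptor beads; compounds precede bead addition by 2 h at 37 °C.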
Starred values were filed as active, the others as inactive; ? = inconclusive.

mol | ClpP mod | CtBP-E1A blk
COc1cc(OC)nc(C(NC(=O)C2CCN(Cc3ccc(N(C)C)cc3)CC2)c2ccc(F)cc2)n1 (stereo unspecified) | 0.1% | -4
COC(=O)[C@]12CCCCC=C1N(Cc1ccc(Cl)cc1Cl)C(=O)[C@H](CC(=O)NCC13CC4CC(CC(C4)C1)C3)C2 | 2.1% | 4
CC[C@@H]1Cc2[nH][nH]c(=O)c2[C@H](c2ccc(Cl)cc2)O1 | 1.9% | -6
Cc1cccc(C)c1NC(=O)C(c1ccncc1)n1c(=O)c(-c2ccccc2)nc2ccccc21 (stereo unspecified) | 4.5% | 5
O=C1Nc2ccccc2C(=O)N(Cc2ccccc2)C1C(=O)NC1CC1 (stereo unspecified) | -2.9% | 0
CC1(C(=O)NS(=O)(=O)c2cccc(F)c2)CCN1C(=O)C1CCCCC1 (stereo unspecified) | -4.1% | 0
O=C(Nc1cccc(C(F)(F)F)c1)c1csc(COCCO)n1 | -1.9% | -22
O=C(C[C@H]1CC[C@@H](NC(=O)C2CC2)[C@@H](CO)O1)NCc1ccccc1Cl | -0.4% | -5
COC(=O)C[C@@H]1C=C[C@H](NC(=O)Cc2ccccn2)[C@@H](CO)O1 | -2.1% | 9
CC(=O)NC(C)(c1ccccc1)c1nc(-c2cnc3ccccc3c2)cs1 (stereo unspecified) | ? | -1
Cc1ccc(CNc2nc3cc(-c4ccccc4)sc3c(=O)n2C)c(C)c1 | 28µM* | -12
Cc1ccc2nc(CN(C)C(=O)[C@H]3O[C@@H](n4ccc(N)nc4=O)[C@H](O)[C@@H]3O)[nH]c2c1 | 2.0% | 7
N#Cc1cccc(C2CC(OCCF)=CC(=O)O2)c1 (stereo unspecified) | -2.1% | 9
CC(=O)c1cccc(NC(=O)c2ccc(-n3cncn3)c3ccoc23)c1 | 0.1% | -28
COc1ccc(C(=O)C[C@@H]2OC3CCCCC3N2S(=O)(=O)c2ccc(C)cc2)cc1OC (stereo partly specified) | -1.4% | -2

Ordered by SMILES length (smallest number first): some entries from above
mol | ClpP mod | CtBP-E1A blk
N#Cc1cccc(C2CC(OCCF)=CC(=O)O2)c1 (stereo unspecified) | -2.1% | 9
O=C(Nc1cccc(C(F)(F)F)c1)c1csc(COCCO)n1 | -1.9% | -22
O=C1Nc2ccccc2C(=O)N(Cc2ccccc2)C1C(=O)NC1CC1 (stereo unspecified) | -2.9% | 0
CC(=O)c1cccc(NC(=O)c2ccc(-n3cncn3)c3ccoc23)c1 | 0.1% | -28
CC1(C(=O)NS(=O)(=O)c2cccc(F)c2)CCN1C(=O)C1CCCCC1 (stereo unspecified) | -4.1% | 0
COC(=O)C[C@@H]1C=C[C@H](NC(=O)Cc2ccccn2)[C@@H](CO)O1 | -2.1% | 9
O=C(C[C@H]1CC[C@@H](NC(=O)C2CC2)[C@@H](CO)O1)NCc1ccccc1Cl | -0.4% | -5
COc1ccc(C(=O)C[C@@H]2OC3CCCCC3N2S(=O)(=O)c2ccc(C)cc2)cc1OC (stereo partly specified) | -1.4% | -2
COc1cc(OC)nc(C(NC(=O)C2CCN(Cc3ccc(N(C)C)cc3)CC2)c2ccc(F)cc2)n1 (stereo unspecified) | 0.1% | -4
Cc1ccc2nc(CN(C)C(=O)[C@H]3O[C@@H](n4ccc(N)nc4=O)[C@H](O)[C@@H]3O)[nH]c2c1 | 2.0% | 7
COC(=O)[C@]12CCCCC=C1N(Cc1ccc(Cl)cc1Cl)C(=O)[C@H](CC(=O)NCC13CC4CC(CC(C4)C1)C3)C2 | 2.1% | 4

Other results:
mol | ClpP mod | CtBP-E1A blk
COc1ccc(Cc2c(C(C)(C)C)nc3c(C)cc(Br)cn23)c(C)c1 | -5.1% | -5
COC(=O)c1ccc2nc(-c3ccc(OC)c(OC)c3)c(Cc3ccc(C)cc3)n2c1 | 5.4% | 10
Cc1ccc(-c2nc3c(Cl)cc(C(F)(F)F)cn3c2Cc2cccc(F)c2)cc1 | ? | 7
CCc1nc2ccc(C(=O)N3CCNC(=O)C3)cn2c1N(C)CCC(C)C | -9.5% | 6
CCNC(=O)C1(C)CCN(Cc2ccc(C(=O)OCC)o2)C1 (stereo unspecified) | -0.1% | 3
COc1ccc(Cl)cc1Cn1c(C)c(C(=O)NCc2ccc(C#N)cc2)sc1=O | 0.6% | -11
CCOC(=O)[C@]12CCCC=C1N(Cc1ccco1)C(=O)[C@H](CC(=O)NCc1cccs1)C2 | 1.4% | 0
COc1ccc(NC(=O)C2(C)CCN2C(=O)Cc2ccccc2)cc1OC (stereo unspecified) | 0.3% | 8
Cc1ccc(Cn2c(C)c(C(=O)NCc3ccc(Cl)c(Cl)c3)sc2=O)cc1 | 1.0% | 0
O=C(CC[C@H]1O[C@@H](n2ccc(=O)[nH]c2=O)[C@H](O)[C@@H]1O)N[C@H](Cc1ccccc1)C(=O)NC1CCCCC1 | 2.1% | 0
Nc1nc2ncccn2c1-c1ccccc1 | -16% | 0
CCc1nc2ccc(C(=O)N3CCN(C(=O)c4ccco4)CC3)cn2c1N(CC)CCOC | -1.3% | 4
CC(=O)c1ccc(Nc2nc(C(N)CC(C)C)cs2)cc1 (stereo unspecified) | -7.3% | -1
CN(C)Cc1csc(Nc2ccc(C(=O)c3ccccc3)cc2)n1 | -3.5% | -4
CC(C)(C)n1nnnc1C(c1ccccc1)N1CCN(c2ncccn2)CC1 (stereo unspecified) | 0.4% | -3
Cc1ccc(S(=O)(=O)N2C[C@H]3C(=O)C[C@@H](c4ccc(Cl)cc4)N(S(=O)(=O)c4ccc(C)cc4)[C@H]3C[C@H]2c2ccc(Cl)cc2)cc1 | 0.9% | 1
CSc1ccc(CN2CCC(C)(Oc3ccc(CC#N)cc3)C2)cc1 (stereo unspecified) | -1.5% | -10
COC(=O)[C@]12CCCCC=C1N(CCc1ccc(OC)c(OC)c1)C(=O)[C@H](CC(=O)N1CCN(C(=O)c3ccco3)CC1)C2 | -3.3% | ?
CCc1nc2ccc(C(=O)N(C)CCCN(C)C)cn2c1N(C)CCCc1ccccc1 | 0.3% | -8
CCOC(=O)C1=CCN(S(=O)(=O)c2ccccc2Br)C1c1ccc(Br)cc1 (stereo unspecified) | -0.1% | 3
CCOC(=O)C1=C[C@@H](C)N(S(=O)(=O)c2ccc(C)cc2)[C@H]1c1ccccc1 | -1.3% | 6
CCCNC(=O)C1(C)CCN(Cc2ccc(-c3ccccc3)o2)C1 (stereo unspecified) | -13% | -15
CC[C@H](CO)Oc1cc(NCc2cccc(N)c2)c2ncn(C(C)C)c2c1 | 0.3% | -10
CCOC(=O)C1=CCN(S(=O)(=O)c2ccccc2C)C1c1ccccc1 (stereo unspecified) | -1.8% | -14
CCNC(=O)c1cc2c(c(-c3cccc(-c4cncnc4)c3)n1)[C@@H](CCO)N(C(C)=O)C2 | -0.9% | 3
CCOC(=O)[C@]12CCC=C1N(Cc1ccc3c(c1)OCO3)C(=O)[C@H](CC(=O)N1CCN(C(=O)c3ccco3)CC1)C2 | -1.0% | 1
Cc1ccnc(Nc2ccc(CCO)cc2)n1 | -0.2% | 9
CCOC(=O)C1(C)CCCCCN1C(=O)c1ccc(N(C)C)cc1 (stereo unspecified) | -3.7% | -12
CC(=O)OC[C@@H]1CN(Cc2ccccc2)C[C@H](n2cnc3c(NCC(C)C)ncnc32)O1 | -0.4% | -1
c1cc2cc(CNc3nc(NCC4CC4)nc4ccsc34)ccc2o1 | -25% | -12
Cc1ccc(F)c(S(=O)(=O)NC(=O)C2(C)CCN2C(=O)c2ccc(C(F)(F)F)nc2C)c1 (stereo unspecified) | 1.3% | 5
COC(=O)[C@@]12C[C@@H](CC(=O)NCc3cccc4ccccc34)C(=O)N(Cc3cccc4ccccc34)C1=CCC(C)(C)C2 | 0.4% | 3
Cc1ccc2nc(-c3ccc(C#N)cc3)c(Cc3ccccc3)n2c1 | 4.7% | 4
Cc1cccc(C)c1C(O)c1ncc(-c2ccccc2Cl)[nH]1 (stereo unspecified) | 1.8% | -9
CCOC(=O)[C@]12CCCC=C1N(Cc1ccco1)C(=O)[C@H](CC(=O)NCCCCc1ccccc1)C2 | -0.4% | 3
O=C(NCc1ccccc1)C1c2ccccc2OCC(=O)N1CCc1c[nH]c2ccccc12 (stereo unspecified) | 0.2% | -3
CC1CCCCc2nc3c(c(=O)n21)CCCC3 (stereo unspecified) | 1.0% | -4
Cc1cccnc1C(NC(=O)C1CCN(Cc2ccc3ccccc3n2)CC1)c1ccc(Cl)cc1 (stereo unspecified) | -2.8% | -14
CCOC(=O)C(=O)N(C)c1c(CC)nc2c(OCc3ccc(OC)cc3)cccn12 | 1.3% | 1
CCNC(=O)C1(C)CCCN1C(=O)c1ccc(C#N)cc1 (stereo unspecified) | 2.1% | 6
O=C(c1ccco1)N1CCN(C2CN(C3CCCC3)S(=O)(=O)C2)CC1 (stereo unspecified) | -0.3% | 11
COC(=O)c1cccc(CC2(C)C(=O)Nc3ccc(OC(F)(F)F)cc32)c1 (stereo unspecified) | -3.0% | 2
O=S1(=O)CC(N2CCN(CCO)CC2)CN1C1CCCC1 (stereo unspecified) | -2.6% | 10
CC(O)(C(=O)c1ccccc1)c1ccccc1 (stereo unspecified) | 2.1% | 9
O=C(O)C1CCC2CCCC21 (stereo unspecified) | 1.2% | 12

Next structures.
Values run as follows: ClpP mod	CtBP-E1A blk
CCOC1=C2CN(S(=O)(=O)c3ccc(C)cc3)[C@H](c3ccc(CC)cc3)C[C@@H]2N(S(=O)(=O)c2ccc(C)cc2)[C@H](c2ccccc2)C1
→ 0.3%	-1
CCCCC(=O)N(C)c1c(CC)nc2c(OCCOc3ccc(F)cc3)cccn12
→ -2.5%	-5
COC(=O)C[C@@H]1CC[C@H](NS(=O)(=O)c2ccccc2F)[C@@H](CO)O1
→ 0.5%	3
CC(=O)OC[C@@H]1CN(Cc2cccc(C(F)(F)F)c2)C[C@H](n2cnc3c(NCc4ccco4)ncnc32)O1
→ 6.1%	-6
COc1cccc(-c2oc3c(c2C#CCCO)C(O)CCC3)c1 (stereo unspecified)
→ -6.6%	3
CCOc1ccccc1C(=O)NCCN1CCC(n2c(=O)[nH]c3ccccc32)CC1
→ 2.8µM*	-17
O=C(NCc1ccccc1)C1C(c2ccc3c(c2)OCO3)=Nc2ccccc2N1C(=O)c1ccccc1 (stereo unspecified)
→ -15%	-11
O=C(NCCN1CCC(n2c(=O)[nH]c3ccccc32)CC1)c1cc(F)cc(F)c1
→ 1.3%	0
CCC(c1nnnn1-c1ccc2c(c1)OCCO2)N1CCN(CCN2CCOCC2)CC1 (stereo unspecified)
→ 0.0%	0
COc1ccc(-c2csc(C(O)c3ccc(F)c(F)c3)n2)cc1 (stereo unspecified)
→ -4.2%	4
CC(C)(C)c1ccc(C(=O)N2CCC(=O)N([C@H](COCc3ccccc3)Cc3ccccc3)CC2)cc1
→ 0.7%	-5
CC(O)(c1cccnc1)c1nc(-c2cccc(C#N)c2)cs1 (stereo unspecified)
→ -0.1%	0
Cc1ccccc1C(=O)N1CCC1(C)C(=O)NC(C)C (stereo unspecified)
→ -1.8%	-6
COc1cc(OC)nc(Nc2nc(C(N)Cc3ccc(F)cc3)cs2)n1 (stereo unspecified)
→ -1.5%	?
Cc1c(C(=O)Nc2cccc(Oc3ccccc3)c2)sc(=O)n1Cc1ccc(F)cc1
→ -25%	3
COc1cc(CN2C[C@@H](CO)O[C@@H](n3cnc4c(N(C)C(C)C)ncnc43)C2)cc(OC)c1OC
→ 4.8%	-5
COC(=O)[C@]12CCCCC=C1N(Cc1ccc(Cl)cc1Cl)C(=O)[C@H](CC(=O)NCc1cccs1)C2
→ 2.7%	-6
CC(C)(C)C(c1nc2ccccc2[nH]1)n1c(-c2cccc(S(C)(=O)=O)c2)nc2ccccc21 (stereo unspecified)
→ 4.7%	5
CC(=O)Nc1cccc(Nc2cnccn2)c1
→ 5.5%	5
Cn1ccc2c(-c3cncc4ccccc34)cc3c(c21)C1CCC3C1 (stereo unspecified)
→ -11%	-12
COC(=O)C1(C(=O)OC)C[C@H](c2ccc(OC)cc2)N(Cc2ccccc2OC)[C@@H]1c1ccc(OC)cc1
→ -1.6%	-8
CC(C)C[C@@H]1COc2cc(N3CC[C@H](O)C3)ccc2S(=O)(=O)N1
→ -5.2%	-2
Cc1cccc(CN2CCN(C3CN(Cc4cn(Cc5ccccc5)nn4)S(=O)(=O)C3)CC2)c1 (stereo unspecified)
→ 1.3%	0
OC(c1ccc(F)cc1)c1nc(/C=C/c2ccccc2)cs1 (stereo unspecified)
→ -5.5%	5
CSCc1cc(C(=O)NCCN2CCOCC2)c(N)s1
→ 0.8%	-4
CC(O)(c1cccc(F)c1)c1nc(-c2cccc(C(F)(F)F)c2)cs1 (stereo unspecified)
→ 0.9%	14
O=C(NCc1ccccc1)C1c2ccccc2OCC(=O)N1Cc1cccnc1 (stereo unspecified)
→ -10%	-14
CC(C)C(C(=O)NCc1ccccc1)N1CCN(c2ccccc2F)CC1 (stereo unspecified)
→ 0.3%	5
CCCS(=O)(=O)NC(=O)C1(C)CCN(C(=O)c2cc(C)oc2C)C1 (stereo unspecified)
→ -1.8%	4
CCOC(=O)C1=CC[C@@H](c2ccncc2)N(S(=O)(=O)c2ccc(C)cc2)C1
→ 0.5%	2
CN(C)CCCNc1nc2cc(-c3cnn(Cc4ccccc4)c3)sc2c(=O)n1C
→ -0.1%	-5
O=c1ccn([C@@H]2O[C@H](CNCc3ccccc3OCc3ccc(Cl)cc3Cl)[C@@H](O)[C@H]2O)c(=O)[nH]1
→ -21%	-6

The list is partial. The share of hits here may be higher or lower than overall.
